hNpr1 antagonist = human Npr1 receptor antagonism | P16066 | HEK293 hNpr1 GloSensor cGMP, ANP-stimulated luminescence | Potency, µM (series often up to 46.3 µM), for inactives: at the top dose activity change, negative = inhibition, most hits filed as inhibitors | actives 1.6% (n = 76,000) | AID 1347048; active = well fitted inhibition curve with a large enough effect; inconclusive = small, poorly fitted or top-dose-only effect; inactive = no such curve, though single readings can be large or run the other way;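 also: nearly all actives have a fitted effect of over 60% in size; nearly all hits also lower the signal before the agonist is added; a reference antagonist and vehicle were the controls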
Target sequence (P16066 whole entry, looked up): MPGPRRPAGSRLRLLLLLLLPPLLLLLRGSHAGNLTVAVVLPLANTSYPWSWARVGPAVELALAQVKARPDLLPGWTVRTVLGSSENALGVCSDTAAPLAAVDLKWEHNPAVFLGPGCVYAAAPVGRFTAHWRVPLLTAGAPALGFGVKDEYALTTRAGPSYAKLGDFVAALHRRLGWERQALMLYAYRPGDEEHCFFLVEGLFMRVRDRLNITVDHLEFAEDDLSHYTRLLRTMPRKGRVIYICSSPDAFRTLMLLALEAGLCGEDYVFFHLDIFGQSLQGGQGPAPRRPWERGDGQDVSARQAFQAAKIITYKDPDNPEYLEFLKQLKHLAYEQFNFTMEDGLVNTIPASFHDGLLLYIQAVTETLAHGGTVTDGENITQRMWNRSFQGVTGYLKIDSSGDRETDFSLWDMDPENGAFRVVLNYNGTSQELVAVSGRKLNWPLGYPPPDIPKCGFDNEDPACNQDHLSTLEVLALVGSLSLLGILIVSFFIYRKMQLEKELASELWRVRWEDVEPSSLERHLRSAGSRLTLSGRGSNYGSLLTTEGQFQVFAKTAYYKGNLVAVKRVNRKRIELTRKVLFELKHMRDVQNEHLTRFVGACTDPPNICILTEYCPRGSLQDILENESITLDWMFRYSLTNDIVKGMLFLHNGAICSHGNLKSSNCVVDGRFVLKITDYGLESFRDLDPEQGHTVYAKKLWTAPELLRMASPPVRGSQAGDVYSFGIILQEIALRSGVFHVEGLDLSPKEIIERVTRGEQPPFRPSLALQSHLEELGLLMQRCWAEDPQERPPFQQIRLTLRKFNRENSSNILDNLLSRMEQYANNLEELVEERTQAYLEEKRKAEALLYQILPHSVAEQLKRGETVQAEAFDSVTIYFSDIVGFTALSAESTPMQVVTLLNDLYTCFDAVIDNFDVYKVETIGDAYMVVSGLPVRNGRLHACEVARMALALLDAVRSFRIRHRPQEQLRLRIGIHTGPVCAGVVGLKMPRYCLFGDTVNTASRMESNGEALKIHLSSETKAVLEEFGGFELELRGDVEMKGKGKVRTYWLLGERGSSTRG
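HEK293 cells stably expressing human Npr1 and cGMP GloSensor pGS-40F, loaded 2 h with 2% GloSensor reagent, given compound 30 min at room temperature. Luminescence read before and 20 min after 0.1 nM hNppA.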
An asterisk follows results filed as active; ? = inconclusive; [ ] = remark or other dose. % is scaled to controls: 0 for no effect and ±100 for the full control effect; potency is read from the fitted curve at half-maximal effect. An excerpt (hit frequency here may not be typical).

SMILES	hNpr1 antagonist
CCN1C(=O)C2CC3(CCN(C(=O)CCc4c[nH]c5ccccc45)CC3)CN2C1=O (stereo not drawn)	-3%
O=C(NCCC1CCN(C(=O)Nc2ccc(F)cc2F)CC1)c1cccc(F)c1	1%
COc1ccc([C@@H](NC(=O)c2ccc3nnnn3c2)C2CC(O)C2)cn1 (stereo partly drawn)	10%
CC1Oc2ccc(NC(=O)c3ccccc3Cl)cc2CN(Cc2ccccc2F)C1=O (stereo not drawn)	-11%
COc1cc(NC(=O)c2c(OC)cc(=O)n3c2CCCC3)cc(OC)c1OC	-5%
O=C(Cn1nc2c(cc1=O)CCCCC2)Nc1ccccc1	1%
Cc1cc(C(=O)N2CC(Oc3ccc(-c4nc(-c5ccccc5)no4)cc3)C2)nn1C	-8%
CC1(C)C(=O)N(Cc2ccc(O)cc2)[C@H]2CN(CCCc3ccccc3)C[C@H]2[S+]1(=O)[O-]	-6%
Cc1nn2c(c1-c1cccnc1N1CCOCC1)N(Cc1ccccc1)CCC2	-27%[70.6 µM]
CC(C)(C)NC(=O)Nc1ccc([C@H]2OCC(=O)N(Cc3ccc(F)cc3)[C@@H]2CO)cc1	-2%[70.6 µM]
CCNC(=O)[C@@H]1C[C@@H](NC(=O)Cn2nccc2C)CN1Cc1ccccn1	-2%
O=C(c1n[nH]c2c1CCC2)N1CCC(c2nccn2Cc2ccccn2)CC1	3%
O=C1CCN(C(=O)C2CCCCC2)CCCC(C(=O)NCc2ccccc2)CCN1 (stereo not drawn)	3%
CC(C)NC(=O)N1CCC(CCOc2ccccc2F)C1 (stereo not drawn)	-17%
CCN(CC)C(=O)N1CCC2(CC1)C(OC)C(=O)N2c1cccc(F)c1 (stereo not drawn)	-2%
CC(C)c1cc(C(=O)N2CC[C@@](O)(C3CCOCC3)[C@H](C)C2)no1	2%
CCOc1cc(=O)n2c(c1C(=O)Nc1cccc(C)c1)CCCC2	0%
COC1CCOC2(CCN(C(=O)Cc3ccccc3F)CC2)C1 (stereo not drawn)	-3%
COC1CCCOC12CCN(C(=O)CCn1c(C)nc3ccccc31)CC2 (stereo not drawn)	3%
O=C1CCN(C(=O)c2cccnc2)CCCC(C(=O)NCCCc2ccccc2)CCN1 (stereo not drawn)	4%
COc1cccc(C(=O)N2C(C(=O)N3CCC(C(N)=O)CC3)COC23CCC(C)CC3)c1 (stereo not drawn)	-2%
CC1(c2ccccc2)N(Cc2ccccc2C#N)C(=O)OC12CCN(C(=O)CN1CCOCC1)CC2 (stereo not drawn)	5%
CCOc1ccccc1CN1CCC2(CCN(C(=O)Nc3ccccc3)CC2)Oc2ccccc21	17%
COc1ccc(-c2cc(N3CCCC(NC(=O)Cc4cccc(F)c4)C3)n[nH]2)cc1 (stereo not drawn)	-17%
COc1ccc(-c2cc3nc4c(c(=O)n3[nH]2)CN(C(=O)c2ccc(C)cc2)CC4)cc1	4%
Cc1cc(C)c(-c2nc3ncccc3[nH]2)[nH]1	14%[70.6 µM]
CC(C)NC(=O)C1CCc2sc(C(=O)N3CCCCCC3)cc2C1 (stereo not drawn)	-6%
CN(Cc1cccc(F)c1)Cc1ccccc1C(F)(F)F	-6%[70.6 µM]
COc1cc(-c2cccs2)cc2c1OCCN(C(=O)C(C)Cn1cncn1)C2 (stereo not drawn)	2%
CC(=O)Nc1cccc(-c2cc3c(cn2)CN(Cc2ccccc2)CCN3)c1	2%[70.6 µM]
COc1ccc(C(=O)N[C@@H]2CCC[C@@H]2C(=O)NCc2ccccc2C)cc1	2%
O=C(NCC1CCCN(C(=O)c2cc(=O)[nH]c(=O)[nH]2)C1)c1cccs1 (stereo not drawn)	2%
COc1cc2c(cc1OC)C(C[C@H]1CN(S(=O)(=O)c3ccccc3)CC[C@H]1CC(=O)O)=NCC2	0%
CCOc1ccc(NC(=O)N2CCC(Oc3ncccc3C(=O)N3CCCCC3)C2)cc1 (stereo not drawn)	1%
O=c1[nH]nc2n1CCC(NS(=O)(=O)Cc1ccccc1F)CC2 (stereo not drawn)	2%
CCOC(=O)C1(Cc2ccc(F)cc2)CCCN(C(=O)c2ccc(C)s2)C1 (stereo not drawn)	0%
COc1cccc([S+](=O)([O-])N2CCC(N3CCCC3=O)CC2)c1	0%[70.6 µM]
Cc1ccc(C(=O)N2CC(N(Cc3cccnc3)S(C)(=O)=O)C2)s1	-11%
COCCNC(=O)[C@H]1C[C@H](Oc2ccccc2)CN1S(=O)(=O)Cc1ccccc1	-10%
COC(=O)c1cccc(NC(=S)N[C@H]2CO[C@H]3[C@@H]2OC[C@H]3OC(=O)Nc2cccc(C(F)(F)F)c2)c1	?
CCCCNC(=O)c1nnn2cc(C)[nH]c(=O)c12	24%
O=C(NCc1ccc(F)cc1)C1CN(c2ccc(F)cc2)C(=O)N1 (stereo not drawn)	12%
Cc1cccc(NC(=O)Cn2cccc2-c2nc(-c3ccc(F)cc3)no2)c1C	-1%
COc1ccc(-c2noc(-c3nnn4c3COC(c3ccc(Cl)cc3)C4)n2)c(OC)c1 (stereo not drawn)	-7%
CCc1cccc(NC(=O)C2CCN(C(=O)c3ncn4c3COC(c3ccc(F)cc3)C4)CC2)c1 (stereo not drawn)	-17%
O=C(c1ccc(-c2ncc3cnc(-c4ccccc4)cn23)cc1)N1CCc2cccnc21	?
O=C(CC1=C2CCCCC2NC1=O)Nc1cccc(F)c1 (stereo not drawn)	3%
O=C1NCCCCCCN(Cc2ccncc2)[C@@H]2CN(C(=O)C3CCOCC3)CC[C@@H]12	2%
COCCOC1CCOC2(CCN(C(=O)NCc3ccc(F)cc3)CC2)C1 (stereo not drawn)	0%
CCO[C@H]1CN(C(=O)Cc2c(C)nn(-c3ccccc3)c2C)C[C@@H]1O	-2%
(cont.)
SMILES	hNpr1 antagonist
Cc1cc(C)c(CNC(=O)c2nc(-c3cccc(CO)c3)cc3c2ccn3C)c(=O)[nH]1	5%[70.6 µM]
COc1ccc(OC)c(NC(=O)Cn2cccc2-c2nc(-c3ccc(OC)c(F)c3)no2)c1	-11%
CS(=O)(=O)c1ccc(CN2CCN3C(=O)N(Cc4ccccn4)C[C@H]3C2)cc1	7%[70.6 µM]
COc1ccccc1C1CCCN1C(=O)CCCn1nnnc1CN1CCOCC1 (stereo not drawn)	1%
O=C(NC1CCCc2nc(-c3cccnc3)ncc21)c1cn[nH]c1-n1cnnn1 (stereo not drawn)	-6%
O=C(C1CCCC1)N1CCC(Cc2nncn2CC2CC2)C1 (stereo not drawn)	0%
CCCCc1cc(C[C@H]2CNCC[C@H]2CC(=O)N2CCCCC2)no1	5%[70.6 µM]
O=C(c1ccc(C(F)(F)F)cc1)N1CCCN(c2nc3ncccc3o2)CC1	5%
Cc1ccc(CNC(=O)c2cc3c(N4CCSCC4)nc(C)cn3n2)cc1	-4%
COc1ccc(-c2noc([C@@H]3CCCN3C(=O)c3ccc(C)c(C)c3)n2)cc1OC	-5%
C=CCN(C)C(=O)C[C@@H]1c2nc(NC(=O)CCCCC)sc2C[C@@H]2[C@](C)(CO)[C@H](O)CC[C@]21C	-1%
O=C(Nc1cccc(-n2cccn2)c1)C1CCCN1CC1CC1 (stereo not drawn)	1%
Cc1ccc(-c2cc(N3CCCN(C(=O)c4cccc(N(C)C)c4)CC3)n[nH]2)cc1C	?
Cc1occc1C(=O)N1CCCn2ccnc2C1c1cnn(C)c1 (stereo not drawn)	5%
O=C(c1ccc(-c2ncc3cnc(C4=CCOCC4)cn23)cc1)N1CC[S+](=O)([O-])CC1	5%[70.6 µM]
CCn1cc(CN2CCN(C(=O)c3ccsc3)CC2)ccc1=O	-2%
Cc1nc(-c2c3n(c(=O)n(Cc4cccc(Br)c4)c2=O)CCCCC3)no1	-1%
Cc1cccc(N2CCN(C(=O)C3CCCN(Cc4cccnc4)CCC(=O)NCC3)CC2)c1 (stereo not drawn)	-9%
CCCc1noc(-c2cccn3c(CNC(=O)c4cccc(Cl)c4)nnc23)n1	-1%
CCc1ccc(C(=O)NC2CCN(c3cc(-c4cccs4)[nH]n3)C2)cc1 (stereo not drawn)	1%
O=C(NC1CCCc2c1[nH]c1ccc(F)cc21)c1n[nH]c2c1CCC2 (stereo not drawn)	-27%
CN(C(=O)c1cc(COc2ccc3c(c2)OCO3)[nH]n1)C1CCOC1 (stereo not drawn)	3%
CCN1C(=O)CCN(Cc2cnn(CC)c2C)CC12CCOCC2	1%
Cc1ccc(CCNC(=O)c2cc3n(n2)CC(c2ccc4c(c2)OCO4)OC3)cc1 (stereo not drawn)	?
C=CCNC(=O)C[C@@H]1CCN(C(=O)Nc2cccc(C(=O)OCC)c2)C[C@@H]1CC	0%[70.6 µM]
COc1ccccc1CNC(=O)C[C@@H]1CCNC[C@@H]1Cc1cc(C(C)(C)C)on1	-13%[70.6 µM]
CCn1nccc1C(=O)N1CCC2(CC1)N(Cc1cccc(F)c1)C(=O)CS2=O (stereo not drawn)	9%
CC1(C(=O)N2C[C@@H](Oc3cccnc3)C[C@H]2C(=O)NC2CC2)CCCCC1	9%
COc1ccc(C(=O)NCCc2ncc(C)n2C2CC2)cn1	0%
CN(Cc1ccccc1)C(=O)C1CC(=O)N(c2n[nH]c3cccc(F)c23)C1 (stereo not drawn)	6%
COCCN1C(=O)CC[C@]2(C(=O)N3CCN(CC(C)C)CC3)CCCC[C@@H]12	6%
O=C(NC1C[C@H]2CC[C@@H](C1)N2C(=O)Cc1ccsc1)c1ccc(F)cc1 (stereo partly drawn)	0%
CCc1ccc(C(=O)N2CCC3(CC2)N(c2ccccc2)C(=O)CS3(=O)=O)cc1	6%
CCC1(O)CCC12CCN(C(=O)C1CCCC1)CC2 (stereo not drawn)	-5%
CN(CC1CCCCC1)C1CCc2ccccc21 (stereo not drawn)	0%[70.6 µM]
CC(C)C(=O)N1CCCN(C)c2ccccc21	0%
Cc1ccc(-n2nc(C)c([C@@H]3C=C[C@@H](NCc4ccc(F)cc4)C3)c2C)cc1Cl	-30%[70.6 µM]
COc1ccc(CCc2nc3nccc(-c4cccnc4)n3n2)cc1	2%
Cn1nc(C2CCN(C(=O)c3ccccc3)CC2)[nH]c1=O	0%[70.6 µM]
COC[C@H]1C[C@@H](NS(=O)(=O)c2cccc(F)c2)[C@H](O)[C@@H]1O	1%[70.6 µM]
Cc1ccc(CN2CC3(C2)NC(=O)c2ccccc2O3)cc1	2%[70.6 µM]
O=C1CCC2(CCN1CC1CC1)CCN(S(=O)(=O)c1cccnc1)CC2	0%
COc1ccc(CN2CCNc3cnc(Nc4cccnc4)cc3C2)cc1O	2%[70.6 µM]
Cc1ccc(C(=O)N2CCCCCCNC(=O)[C@@H]3C[C@@H](c4nc(C(C)C)no4)C[C@@H]32)s1	-11%
COc1ccc(-c2cc(N3CCC(NC(=O)c4ccccc4F)CC3)n[nH]2)cc1	-21%
O=C1Nc2cnccc2C2(CCN([S+](=O)([O-])c3cccc(C(F)(F)F)c3)C2)O1 (stereo not drawn)	0%
COCCOC1CCN(C(=O)Cc2cccc(F)c2)CC1	0%
CCn1c(CO)nnc1C1CC(NC(=O)c2ccccc2-n2cccn2)C1 (stereo not drawn)	0%
CN(Cc1cn(-c2ccccc2)nn1)Cc1nccn1Cc1ccccc1	-4%
COC(=O)[C@@H]1Cc2ncn(Cc3ccc(Cl)cc3)c2CN1S(=O)(=O)c1ccc(OC)cc1	-11%
Continuation.
SMILES	hNpr1 antagonist
O=C(CC1CCCCC1)N1CCC(Cc2nc(-c3ccc(F)cc3)no2)CC1	4µM*
COc1cncc(CN2CCC3(CC2)OC(=O)N(Cc2ccccc2C#N)C3(C)c2ccccc2)c1 (stereo not drawn)	?
CC(C)CCN1C(=O)CC[C@]2(C(=O)N3CCN(C(C)C)CC3)CCCC[C@@H]12	-7%
CC(C)N1CCC(CC(=O)N[C@@H]2CN(S(C)(=O)=O)C[C@H]2CN(C)C)CC1	4%

Reprinted from the results shown (19 entries):
SMILES	hNpr1 antagonist
CCc1ccc(C(=O)N2CCC3(CC2)N(c2ccccc2)C(=O)CS3(=O)=O)cc1	6%
CCC1(O)CCC12CCN(C(=O)C1CCCC1)CC2 (stereo not drawn)	-5%
CN(CC1CCCCC1)C1CCc2ccccc21 (stereo not drawn)	0%[70.6 µM]
CC(C)C(=O)N1CCCN(C)c2ccccc21	0%
Cc1ccc(-n2nc(C)c([C@@H]3C=C[C@@H](NCc4ccc(F)cc4)C3)c2C)cc1Cl	-30%[70.6 µM]
COc1ccc(CCc2nc3nccc(-c4cccnc4)n3n2)cc1	2%
Cn1nc(C2CCN(C(=O)c3ccccc3)CC2)[nH]c1=O	0%[70.6 µM]
COC[C@H]1C[C@@H](NS(=O)(=O)c2cccc(F)c2)[C@H](O)[C@@H]1O	1%[70.6 µM]
Cc1ccc(CN2CC3(C2)NC(=O)c2ccccc2O3)cc1	2%[70.6 µM]
O=C1CCC2(CCN1CC1CC1)CCN(S(=O)(=O)c1cccnc1)CC2	0%
COc1ccc(CN2CCNc3cnc(Nc4cccnc4)cc3C2)cc1O	2%[70.6 µM]
Cc1ccc(C(=O)N2CCCCCCNC(=O)[C@@H]3C[C@@H](c4nc(C(C)C)no4)C[C@@H]32)s1	-11%
COc1ccc(-c2cc(N3CCC(NC(=O)c4ccccc4F)CC3)n[nH]2)cc1	-21%
O=C1Nc2cnccc2C2(CCN([S+](=O)([O-])c3cccc(C(F)(F)F)c3)C2)O1 (stereo not drawn)	0%
COCCOC1CCN(C(=O)Cc2cccc(F)c2)CC1	0%
CCn1c(CO)nnc1C1CC(NC(=O)c2ccccc2-n2cccn2)C1 (stereo not drawn)	0%
CN(Cc1cn(-c2ccccc2)nn1)Cc1nccn1Cc1ccccc1	-4%
COC(=O)[C@@H]1Cc2ncn(Cc3ccc(Cl)cc3)c2CN1S(=O)(=O)c1ccc(OC)cc1	-11%
O=C(CC1CCCCC1)N1CCC(Cc2nc(-c3ccc(F)cc3)no2)CC1	4µM*

Screening results as filed in PubChem BioAssay.
